# ATG4B inhibitor: inhibitors of human ATG4B cysteine protease. Q9Y4P1. ATG4B cleavage of LC3-PLA2, NBD-HPC fluorescence, 1 h. inhibition, % at 8.33 µM. actives 0.51% (n = 340,000). AID 504462; in the data active = inhibition above about 40%
# Target sequence (Q9Y4P1 whole entry, looked up): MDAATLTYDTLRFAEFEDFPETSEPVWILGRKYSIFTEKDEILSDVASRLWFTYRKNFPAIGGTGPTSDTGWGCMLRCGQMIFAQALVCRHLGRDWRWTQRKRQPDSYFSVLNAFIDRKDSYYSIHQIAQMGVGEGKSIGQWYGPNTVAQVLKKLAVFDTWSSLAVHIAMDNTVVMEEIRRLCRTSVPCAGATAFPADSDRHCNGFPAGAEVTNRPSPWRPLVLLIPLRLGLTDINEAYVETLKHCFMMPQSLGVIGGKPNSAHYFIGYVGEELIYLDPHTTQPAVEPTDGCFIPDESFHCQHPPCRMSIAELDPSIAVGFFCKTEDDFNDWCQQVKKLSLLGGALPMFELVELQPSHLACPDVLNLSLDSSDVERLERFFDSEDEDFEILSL
# SENP8 inh: blocks human SENP8 cleavage of Nedd8 substrate. recombinant SENP8, Nedd8 substrate fluorescence. Q96LD8. inhibition, % at 20 µM. actives 0.64% (n = 360,000); in the data active = inhibition mostly above about 40%, no sharp cut-off; inactive = mostly below about 27%
# PfG6PD inh: PfG6PD (Plasmodium falciparum) enzyme inhibition. inhibition, % at 20 µM. AID 504690. PfGluPho enzyme, NADPH resazurin-diaphorase fluorescence. actives 0.78% (n = 350,000);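 active = inhibition reaching at least a set limit at 20 µM in the primary screen, cut at about 59% in these data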;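 note: 0% = DMSO wells with substrate and 100% = DMSO wells lacking glucose-6-phosphate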
# hIAP act: increases human intestinal alkaline phosphatase activity; P09923; purified human IAP, CDP-Star luminescence, 30 min; active compounds read high; 1 = vehicle-only enzyme, 0 = enzyme-free background; activation factor at 10 µM; actives 0.16% (n = 330,000); AID 2524;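 active = activation factor of the enzyme at least 2-fold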; note: the source names both 10 and 20 µM as test concentration; values of inactives mirror those of a sister screen read the other way
# * marks the source's active call; other numbers are inactive results; · = not tested or not shown; & = joins results of further samples. Not all compounds are listed; the hit share may differ from the screen's.
# Below each SMILES – ATG4B inhibitor	SENP8 inh	PfG6PD inh	hIAP act
CN[C@H]1CC[C@@H](c2ccc(Cl)c(Cl)c2)c2ccccc21
  5&1	10&11	10&9	1.4
C[C@]12CC[C@@H]3c4ccc(O)cc4CC[C@H]3[C@@H]1CC[C@@H]2O
  -3	5	-2	0.9
Nc1ncnc2c1ncn2[C@@H]1O[C@H](CO)[C@@H](O)[C@H]1O
  -3	6	-3	1
C[C@H]1O[C@@H](O[C@H]2[C@@H](O)C[C@H](O[C@H]3[C@@H](O)C[C@H](O[C@H]4CC[C@@]5(C)[C@H](CC[C@@H]6[C@@H]5C[C@@H](O)[C@]5(C)[C@@H](C7=CC(=O)OC7)CC[C@]65O)C4)O[C@@H]3C)O[C@@H]2C)C[C@H](O)[C@@H]1O
  -6	13	15	0.92&0.88
C#C[C@]1(O)CC[C@H]2[C@@H]3CCC4=CC(=O)CC[C@@H]4[C@H]3CC[C@@]21C
  -1	8	5	0.77
COc1ccc2cc([C@@H](C)C(=O)O)ccc2c1
  5	1	-4	1.1
CCN1CCC[C@H]1CNC(=O)c1cc(S(N)(=O)=O)ccc1OC
  ·	·	·	1.1
NCCNCCNCCN
  -6	0	-18	1
COC(=O)[C@H]1[C@H]2C[C@H]3c4[nH]c5ccccc5c4CCN3C[C@@H]2CC[C@@H]1O
  -2&-2	-98&-49	2&-1	1

# One compound at a time, from the list above.
# CCN1CCC[C@H]1CNC(=O)c1cc(S(N)(=O)=O)ccc1OC in the list: ATG4B inhibitor = ·; SENP8 inh = ·; PfG6PD inh = ·; hIAP act = 1.1
# C[C@]12CC[C@@H]3c4ccc(O)cc4CC[C@H]3[C@@H]1CC[C@@H]2O in the list: ATG4B inhibitor = -3; SENP8 inh = 5; PfG6PD inh = -2; hIAP act = 0.9

# Quoted from the listing.
# Reading for `CN[C@H]1CC[C@@H](c2ccc(Cl)c(Cl)c2)c2ccccc21` under ATG4B inhibitor: 5&1
# Reading for `C[C@]12CC[C@@H]3c4ccc(O)cc4CC[C@H]3[C@@H]1CC[C@@H]2O` under SENP8 inh: 5
# Reading for `C#C[C@]1(O)CC[C@H]2[C@@H]3CCC4=CC(=O)CC[C@@H]4[C@H]3CC[C@@]21C` under SENP8 inh: 8
# Reading for `COc1ccc2cc([C@@H](C)C(=O)O)ccc2c1` under SENP8 inh: 1

# Bioassay records from PubChem.
